Bioassay records: PubChem, National Center for Advancing Translational Sciences (NCATS)
Prx2 Sm inh: blocks S. mansoni peroxiredoxin 2 enzymatic activity; Potency, µM; hit rate 0.07% among 65,000; S. mansoni Prx2 activity coupled to TGR/GSH (TGR is thioredoxin glutathione reductase), NADPH fluorescence loss, qHTS; some inactives read as strong as hits; active means full or partial inhibition curve with a strong effect at the top dose; inconclusive means weaker partial or single-point curve; inactive means no accepted curve; also: series up to 57 µM; many of its hits are not listed in these tables
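Purified S. mansoni TGR and Prx2 in pH 7.4 phosphate buffer with EDTA and Tween-20 were preincubated with compounds for 15 min. Further NADPH/GSH was added, then a 2.5 mM H2O2 aliquot initiated turnover, followed kinetically by NADPH fluorescence.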
Anthrax LT inh: blocks cellular internalization of anthrax lethal toxin. Cells, anthrax lethal toxin internalization, FRET ratio (460/530). Potency, µM (top dose mostly 40 µM), for inactives: top-dose activity change, negative = inhibition, usual class: inhibitors. hit rate 0.67% among 70,000; active = well fitted falling ratio curve with the 530 nm signal flat; inconclusive = other ratio curves, or a change in one channel alone; inactive = flat curves in the ratio and both channels; the % refers to the ratio; also: % is scaled to controls: 0 for no effect and ±100 for the full control effect; nearly all actives have a fitted effect of over 50% in size; tested in ME-180 cells; beta-lactamase reporter
The depositor's hits bear a star; ? = inconclusive; · = no result given; [ ] = dose if it differs, or a comment. Potency is read from the fitted curve at half-maximal effect.

molecule	Prx2 Sm inh	Anthrax LT inh
CCOC(=O)C(NC(=O)C1CCCN1C(=O)OCc1ccccc1)C(=O)OCC (centres undefined)	>57	17.3%
CCOC(=O)c1csc(NC(=O)c2ccc(S(=O)(=O)N3CCCC3)cc2)n1	>57	9.1%
CCOC(=O)N1CCN(C(=O)CSc2nc3c(cnn3-c3ccc(Cl)cc3)c(=O)[nH]2)CC1	>57	17.9%
O=C(CSc1ncn[nH]1)Nc1ccc(Br)cc1F	>57	-4.4%
CCC(Sc1nc2sc(C(=O)OC)c(C)c2c(=O)n1N)C(=O)NCC1CCCO1 (centres undefined)	>57	?
Cc1ccc(-n2c3c(cc(C(=O)NCCCN4CCOCC4)c2=O)C(=O)CC(C)(C)C3)cc1	>57	17.0%
COC(=O)[C@@]1(Cc2ccc(OC)cc2)[C@H]2c3cc(C(=O)N4CCCC4)n(Cc4ccccn4)c3C[C@H]2CN1C(=O)c1ccccc1	>57	?
Cc1ccc(-n2nnc3c(=O)n(Cc4ccccc4C)cnc32)cc1	>57	3.1%
O[C@@H](c1ccccc1)C1CCN(CCc2ccccc2)CC1	>57	-2.3%
O=S(=O)(Nc1ccc2c(c1)nc1n2CCOC1)c1ccccc1	>57	?
O=S(=O)(/C=C/c1ccccc1)N1CCN(c2ccccc2)CC1	·	-2.3%
Cc1noc(C)c1-c1ccc2ncnc(N(C)C)c2c1	>57	-3.2%
O=C(Cn1c(=O)oc2cc(S(=O)(=O)N3CCCC3)ccc21)Nc1ccc(C(F)(F)F)cc1	>57	-17.1%
O=C(CSc1nnnn1-c1ccccc1)Nc1nsc(-c2ccccc2)n1	>57	-23.5%
COc1ccccc1-c1nc(-c2ccc(Br)cc2)no1	·	-16.7%
Cc1ccc(C)n1-c1cc(S(=O)(=O)N2CCOCC2)ccc1N1CCCC1	>57	-1.8%
O=C(Cn1cc2c(n1)CCCC2)N1CCCC1	>57	17.1%
Cc1cc(=O)oc(C)c1C(=O)N1CCc2c([nH]c3ccccc23)C1C(C)C (centres undefined)	>57	-15.6%
CCOc1ccc(-c2[nH]ncc2Oc2cccc(OC)c2)c(O)c1	>57	?
COC(=O)c1ccc(S(=O)(=O)N2CCCC2)o1	>57	?
O=S(=O)(c1cc(Cl)ccc1Cl)n1nnc2ccccc21	>57	-5.6%
C[C@H](CC(C#N)(c1ccccc1)c1ccccc1)N1CCCCC1	>57	-12.9%[8 µM]
O=C(OCc1nnc(-c2ccccc2)o1)c1ccc2c(c1)OCCO2	>57	0.0%
O=C(NCc1cn2ccsc2n1)Nc1ccc(Cl)cc1	>57	-4.6%
CCNc1ncc2nc(C)c(=O)n(C[C@H]3CCCO3)c2n1	>57	?
CSc1nnc([C@@H](NC(=O)OC(C)(C)C)C(C)C)o1	>57	17.2%
CC(=O)NCC12CC3CC(C1)CC(C(=O)O)(C3)C2	>57	-6.5%
CC1N(O)C2CCCCCC2N1O (centres undefined)	>57	·
Cn1c(=O)c2c(nc(NCc3ccco3)n2C/C=C/c2ccccc2)n(C)c1=O	>57	-26.4%
CC(C)NC(=O)C1(O)c2ccccc2NC(=O)N1c1ccc(Cl)c(Cl)c1 (centres undefined)	>57	-28.1%

Compound profiles, as listed above:
Profile of Cn1c(=O)c2c(nc(NCc3ccco3)n2C/C=C/c2ccccc2)n(C)c1=O = Prx2 Sm inh = >57; Anthrax LT inh = -26.4%
Profile of O=C(OCc1nnc(-c2ccccc2)o1)c1ccc2c(c1)OCCO2 = Prx2 Sm inh = >57; Anthrax LT inh = 0.0%
Profile of CC(=O)NCC12CC3CC(C1)CC(C(=O)O)(C3)C2 = Prx2 Sm inh = >57; Anthrax LT inh = -6.5%

The listing continues.
molecule	Prx2 Sm inh	Anthrax LT inh
Cc1cnc(-c2nnc(N(C)C(=O)c3ccncc3)s2)cn1	>57	1.6%
COC(=O)c1ccc(C(NC(=O)OCc2ccccc2)/C(=C/[C@@H](C)C(=O)NCc2ccc(OC)c(O)c2)c2cccnc2)cc1 (some centres undefined)	·	6.9%
CCOC(=O)N1CCN(Cc2cc(=O)oc3ccc4ccccc4c23)CC1	>57	3.3%
COc1cccc(N(CC(=O)Nc2ccccc2C)S(C)(=O)=O)c1	>57	-6.7%
O=C1C=C(NC2CC2)C2(CCCCC2)O1	·	3.1%
CCN1CCN(c2ccc(NC(=O)COc3ccccc3Cl)cc2)CC1	>57	-4.8%
O=C(Nc1nonc1NC(=O)C1CCCCC1)C1CCCCC1	>57	-1.8%
COCCOC(=O)C1=C(C)NC(=O)NC1C1CC=CCC1 (centres undefined)	·	5.9%
CC(C)C(=O)Nc1c2c(nc3c1CCC3)CCCC2	>57	1.8%
O=C(CCN1C(=O)COc2ccccc21)NCCN1CCOCC1	>57	5.4%
COc1ccccc1-c1nc2s/c(=C\c3cccs3)c(=O)n2n1	>57	-7.8%
CN(C)C(=O)c1ccc(-c2ccc3ncnc(NCc4cccnc4)c3c2)cc1	>57	?
CCOc1cccc(-c2nnc3sc(-c4cc(OC)c(OC)cc4OC)nn23)c1	>57	3.3%
CCCOC(=O)Nc1ccc(N2CCCCC2)cc1	>57	?
Clc1cccc(N2CCN(Cc3nc(-c4ccccc4)no3)CC2)c1	>57	?
O=C(CSc1nc(-c2ccco2)cc(C(F)(F)F)n1)N1CCSCC1	>57	5.6%
Cc1ccccc1OCc1nc2c3cnn(C)c3ncn2n1	>57	2.0%
COc1ccc(-c2nc3cnc(OC)nc3n(C)c2=O)cc1	>57	8.0%
COc1ccc2oc(=O)c(-c3nnc(NCc4ccco4)s3)cc2c1	>57	?
OCl	·	-2.3%
CS(=O)(=O)N(CC(=O)N1CCN(c2ccccc2)CC1)c1cc(C(F)(F)F)ccc1Cl	>57	-14.6%
OCC1(CO)COC(c2cccnc2)N1 (centres undefined)	>57	2.1%
COc1ccc(-c2cc(C(F)(F)F)nc(S(C)(=O)=O)n2)cc1OC	>57	?
COc1ccc(C)cc1N(CC(=O)O)S(=O)(=O)c1ccc(C)cc1	>57	-2.5%
CCSc1nc2c(c(=O)[nH]c(=O)n2C)n1C	>57	2.3%
CN(C)c1ccc(C(CC(=O)O)NC(=O)c2ccc(Cl)cc2)cc1 (centres undefined)	>57	-18.0%
CC(=O)C1C(c2ccc(Cl)cc2)NC(=O)NC1(O)C(F)(F)F (centres undefined)	>57	-3.7%
CCOC(=O)N1CCN(C(=O)c2ccccc2NC(=O)COc2ccccc2C)CC1	>57	?
Cc1cc(C)cc(N(CC(=O)N2CCc3ccccc32)S(=O)(=O)c2c(C)noc2C)c1	>57	2µM*
CCCNC(=O)C1CCN(S(=O)(=O)c2ccc3nc4c(c(C(=O)O)c3c2)CCCCC4)CC1	>57	-1.7%

An excerpt of these results, as labelled records:
> COc1ccc(-c2cc(C(F)(F)F)nc(S(C)(=O)=O)n2)cc1OC
  Prx2 Sm inh: >57	Anthrax LT inh: ?

> COc1ccc(C)cc1N(CC(=O)O)S(=O)(=O)c1ccc(C)cc1
  Prx2 Sm inh: >57	Anthrax LT inh: -2.5%

> CCSc1nc2c(c(=O)[nH]c(=O)n2C)n1C
  Prx2 Sm inh: >57	Anthrax LT inh: 2.3%

Further compounds
Every second line gives: Prx2 Sm inh, Anthrax LT inh
COC(=O)c1cccc(S(=O)(=O)N(Cc2ccco2)Cc2cc3ccc(OC)cc3[nH]c2=O)c1
→ >57, 3.6%
CCc1cc2c(NCC(=O)O)ncnc2s1
→ >57, -1.5%
Cc1cc(N/C=C2\CCCCC2=O)no1
→ ·, 0.6%
COc1ccccc1/C=C/CN1CC(C)OC(C)C1 (centres undefined)
→ >57, -19.8%
Cc1cc2cc(CCNS(C)(=O)=O)c(=O)[nH]c2cc1C
→ >57, 7.3%
CP(=O)(COC(=O)c1ccccc1)COC(=O)c1ccccc1
→ >57, 1.7%
CCOc1ccccc1C(=O)N(CN1CCCC1=O)c1ccc(C)c(Cl)c1
→ >57, 15.8%
Cc1nn(C)c(C)c1NC(=O)CSc1nnc(C)n1-c1ccccc1
→ >57, -8.5%
COCCNC(=O)c1ccc2c(=O)n(CCOC)c(=O)[nH]c2c1
→ >57, 5.6%
CCOc1ccc2[nH]c(=O)c(CN(CC3CCCN3CC)C(=O)NCc3ccccc3)cc2c1 (centres undefined)
→ >57, 4.3%
Cc1cc2n(n1)C(c1ccc3c(c1)OCO3)Nc1ccccc1-2 (centres undefined)
→ >57, -4.5%
Cc1[nH]c(=O)[nH]c(=O)c1NC(=O)c1cccs1
→ >57, ?
Cc1nnc(SCC(=O)Nc2nccs2)[nH]c1=O
→ >57, -2.5%
Cc1ccc2nc(N3CCN(Cc4nnnn4Cc4ccccc4)CC3)c(C#N)cc2c1
→ >57, ?
CC1(C)Cc2c(sc3nc(NCCN4CCOCC4)n4ncnc4c23)CO1
→ >57, -5.6%
Cc1cc(C)n(CCOc2nonc2N)n1
→ >57, -15.4%
O=C(O)c1ccc(S(=O)(=O)N(Cl)Cl)cc1
→ ·, -5.2%
COCc1cc(C)nc(N2CCN(c3ccccc3)CC2)c1C#N
→ >57, 10µM*
O=C(O)CCN1C(=O)CC2(CCCCC2)C1=O
→ >57, 13.2%
COc1ccc(C(C)NC(=O)C2C(=O)NC3(C)CC2c2ccccc2O3)cc1 (centres undefined)
→ >57, 2.7%
CC1CC(C)CN(S(=O)(=O)c2ccc(NC(=O)C3COc4ccccc4O3)cc2)C1 (centres undefined)
→ >57, ?
COc1ccc(C2C3=C(OC(C)=O)c4ccccc4C3=Nc3c2c(=O)n(C)c(=O)n3C)cc1 (centres undefined)
→ >57, 11.2%
Cc1c(C2CCN(CCc3ccccc3)CC2)noc1-c1ccc(Cl)cc1
→ >57, ?
O=C(OCCN1C(=O)c2ccccc2C1=O)C1CCN(S(=O)(=O)c2cccs2)CC1
→ >57, 5.9%
CC(C)c1ccccc1OCCNS(C)(=O)=O
→ >57, -13.5%
CCOc1cc(C2C(C#N)=C(N)Oc3n[nH]c(C)c32)ccc1OCCN1CCOCC1 (centres undefined)
→ >57, 9.7%
N#Cc1nc(Cc2ccccc2)oc1NCc1ccccc1Cl
→ >57, ?
COc1cc(C2Nc3cccc4cccc(c34)N2)ccc1OC(C)=O
→ >57, -17.4%
CCn1c(SCC(=O)NC)nnc1C(C)C
→ >57, -17.5%
CCOC(=O)C(C(=O)N1CCOCC1)C1CCCCC1 (centres undefined)
→ >57, -17.2%
COc1cccc(Cn2c(=O)c(-c3ccc(F)cc3)nc3cncnc32)c1
→ >57, -7.6%
CCNC(=O)c1ccc2c(c1)S(=O)(=O)c1ccccc1C2=O
→ >57, -9.4%
O=c1sc2ccccc2n1COc1ccccc1
→ ·, ?
CC(C)c1ccc(O)c(CN2CCN(c3ccccc3)CC2)c1
→ >57, -11.2%
C=CCN1C(=O)C2(C(C#N)=C(N)Oc3n[nH]c(CCC)c32)c2ccccc21 (centres undefined)
→ >57, -22.9%
CCN(Cc1ccccc1)C(=O)Cn1c(=O)n(CC(=O)NCc2ccco2)c(=O)c2sccc21
→ >57, 2.3%
O=C(COc1ccc2ccccc2c1Br)Nc1ncn[nH]1
→ >57, 8.2%
O=C(Nc1ccc(Cl)cn1)c1ccc(COCC(F)(F)C(F)F)o1
→ >57, 3.1%
CO/N=C(/C(=O)N[C@@H]1C(=O)N2C(C(=O)O)=C(COC(N)=O)CS[C@H]12)c1ccco1
→ ·, -6.3%
O=S(=O)(Nc1cccc(-c2nc3cccnc3s2)c1)c1ccc2c(c1)OCCO2
→ >57, ?
COc1cc2nc(C)sc2cc1SC
→ >57, 1.6%
Cc1ccc2c(c1)CC1(CN2C)C(=O)NC(=O)N(c2cc(C)ccc2C)C1=O (centres undefined)
→ >57, -0.5%
O=C(CCN1CCN(c2ccccn2)CC1)Nc1ccc(F)cc1
→ >57, 15.3%
CCOC(=O)Nc1ccc2c(c1)N(C(=O)CCN(C)C)c1ccccc1S2
→ >57, ?
CCC/C=C/C1C(=O)C2OC2C2(OCC(CC)(CC)CO2)C1CO (centres undefined)
→ ·, 21.4%[8 µM]
O=P(O)(CCc1ccccn1)CN1CCCCC1
→ ·, -12.5%
Cc1nn(-c2cc(C)c3ccccc3n2)c2c1CCC2
→ >57, -24.6%
O=C(NCc1ccc(Cl)cc1)C1C2C=CC3(CN(Cc4cccnc4)C(=O)C13)O2 (centres undefined)
→ >57, 0.2%
Cc1cc(C(=O)COc2ccc3ccc(=O)oc3c2)c(C)n1Cc1cccs1
→ ?, ?
CN(C)C(=O)c1ccc(-c2nccc(NCc3ccccc3)n2)cc1
→ >57, 6.2%
O=C(CN(C(=O)CSc1nnc(COc2ccccc2)o1)c1ccc(F)cc1)NC1CCCCC1
→ >57, -0.8%
CN(C)c1nc(N)c(C(=O)Nc2cccnc2)nc1Cl
→ ·, 6.7%
Cc1ccc(S(=O)(=O)NC(=O)c2cc(C)n(CCCn3ccnc3)c2C)cc1
→ >57, -0.6%
COc1ccc(NC(=O)NCCCN2CCN(c3cc(C)ccc3C)CC2)cc1
→ >57, ?
COc1cccc(-c2nn(-c3ccccc3)cc2C(=O)Nc2nccs2)c1
→ >57, -22.3%
O=C(Nc1ccc(S(=O)(=O)N2CCCC2)cc1)C1COc2ccccc2O1 (centres undefined)
→ >57, -25.0%
COC(=O)CCP(=O)(O)Cc1ccccc1CP(=O)(O)CCC(=O)OC
→ >57, 11.0%

These rows are one share of the data; count on the stated rates, not on these rows.
